High-throughput results from PubChem BioAssay.
CtBP-E1A inh: inhibitors of CtBP/E1A interaction; AlphaScreen GST-E1A/His-CtBP binding, 1536-well; stronger effect = lower value; control for the full effect not named in the record; activity change, % (concentration not given with the values); actives 0.49% (n = 340,000); AID 651724; in the data active means activity change below about -65%; inconclusive means about -30% to -65%; inactive means above about -30%; note: % is set by controls: 0 for no effect and ±100 for the full control effect
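Protein mix (5X: 125 nM each GST-E1A, His-CtBP) was incubated with pinned compound 2 h at 37 deg C in dark, in 50 mM Tris pH 8.0 buffer with 300 mM NaCl. Glutathione donor and nickel acceptor beads followed; AlphaScreen signal read after 1 h.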
D2 potentiator: positive allosteric modulators of human D2 dopamine receptor; P14416; potentiation, % (concentration not given with the values); DiscoveRx D2 beta-arrestin cells, luminescence, 90 min; 100% = 57 uM dopamine signal; actives 0.23% (n = 360,000); active = potentiation of 50% or more; inconclusive = 30% to 50%; inactive = 30% or less;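 note: compound concentration not given in the record; tested on top of an EC20 dose of dopamine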
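PathHunter D2 cells, attached overnight at 37 deg C, received compound in DMSO plus dopamine at EC20 (50 nM final) for 90 min at 37 deg C. Beta-arrestin recruitment was read as luminescence after 1 h with detection reagent at ambient temperature.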
D2 ag: agonists of human D2 dopamine receptor (beta-arrestin) | P14416 | AID 624465 | activation, % (concentration not given with the values) | DiscoveRx PathHunter D2 beta-arrestin, luminescence, 90 min; 100% = 57 uM dopamine signal | actives 0.084% (n = 360,000); in the data active = activation above about 40%; inconclusive = about 15% to 40%; inactive = below about 15%; note: compound concentration not given in the record; the text of the record calls up to 30% inactive
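DiscoveRx PathHunter D2 beta-arrestin cells (2,100/well) attached overnight, then compound-stimulated 90 min at 37 C in HBSS/10 mM HEPES/0.1% Tween-20 buffer; beta-galactosidase complementation read by luminescence after 1 h at ambient temperature. Dopamine 57 uM final (EC100) as control.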
gsp agonist: agonists of gsp mutant (McCune-Albright syndrome); gsp mutant cells, cAMP HTRF, 30 min; control for the full effect not named in the record; Potency, µM (highest dose often 76.9 µM), inactives show at the top dose activation (cAMP increase), most hits filed as activators; actives 0.13% (n = 340,000); AID 624287; active = well fitted activation curve with a large enough effect; inconclusive = small, poorly fitted or top-dose-only effect, or another doubt; inactive = no such curve, though single readings can be large or run the other way; cell line not stated here;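 note: phosphodiesterase inhibitor Ro 20-1724 added with compounds to block cAMP breakdown; potency is the fitted concentration of half-maximal effect; nearly all actives have a fitted effect of over 60% in size; about a fifth of the inactives were tested at one dose only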
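Cells in DMEM/10% FBS with G418 were pretreated with compounds in DMSO plus […] (300 uM stock) for 30 min at 37C. cAMP was measured by HTRF (cAMP-d2 plus anti-cAMP antibody-K) after 30 min at room temperature.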
gsp antag: antagonizes gsp, the McCune-Albright syndrome mutation; actives 0.4% (n = 340,000); Potency, µM (series often up to 76.9 µM), for inactives: top-dose activity change, negative = inhibition, most hits filed as inhibitors; gsp-mutant cells, cAMP HTRF, 30 min; control for the full effect not named in the record; AID 624288; active = falling curve of any shape with a large fitted effect; inconclusive = falling curve, mostly with a smaller effect; inactive = flat or rising curve; cell line not stated here;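 note: intracellular cAMP measured with PDE inhibitor Ro 20-1724 present during compound exposure; potency is the fitted concentration of half-maximal effect; % is set by controls: 0 for no effect and ±100 for the full control effect; nearly all actives have a fitted effect of over 65% in size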
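Cells in G418 medium, seeded 16-24 h, 37C; buffer exchange to DPBS + 1 mM CaCl2, 0.5 mM MgCl2, 0.05% BSA; cpds in DMSO + […] (300 uM stock), 30 min 37C; HTRF cAMP detection.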
Six1-Eya2 inh: Six1/Eya2 interaction inhibition; actives 0.56% (n = 360,000); activity change, % (test concentration not listed); Q15475+O00167; AID 651725; AlphaScreen GST-Six1/His-Eya2 binding, biochemical; stronger effect = lower value; control for the full effect not named in the record; in the data active = activity change below about -65%; inconclusive = about -30% to -65%; inactive = above about -30%; note: % is set by controls: 0 for no effect and ±100 for the full control effect; compound concentration not given in the record
Target sequence (O00167 whole entry, looked up): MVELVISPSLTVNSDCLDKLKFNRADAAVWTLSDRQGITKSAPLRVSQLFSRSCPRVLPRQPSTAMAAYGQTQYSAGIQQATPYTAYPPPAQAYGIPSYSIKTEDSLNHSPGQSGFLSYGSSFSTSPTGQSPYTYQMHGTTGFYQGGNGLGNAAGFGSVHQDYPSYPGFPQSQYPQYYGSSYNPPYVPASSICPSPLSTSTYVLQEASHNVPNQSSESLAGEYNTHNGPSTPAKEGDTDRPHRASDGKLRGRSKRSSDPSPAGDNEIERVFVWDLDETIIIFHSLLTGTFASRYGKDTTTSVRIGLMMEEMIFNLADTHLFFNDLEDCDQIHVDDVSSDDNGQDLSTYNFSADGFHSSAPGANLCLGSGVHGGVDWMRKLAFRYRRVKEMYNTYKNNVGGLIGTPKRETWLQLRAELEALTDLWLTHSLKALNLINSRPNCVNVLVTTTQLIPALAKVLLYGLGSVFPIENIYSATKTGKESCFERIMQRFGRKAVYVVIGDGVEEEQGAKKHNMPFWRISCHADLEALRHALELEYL
Target sequence (Q15475 whole entry, looked up): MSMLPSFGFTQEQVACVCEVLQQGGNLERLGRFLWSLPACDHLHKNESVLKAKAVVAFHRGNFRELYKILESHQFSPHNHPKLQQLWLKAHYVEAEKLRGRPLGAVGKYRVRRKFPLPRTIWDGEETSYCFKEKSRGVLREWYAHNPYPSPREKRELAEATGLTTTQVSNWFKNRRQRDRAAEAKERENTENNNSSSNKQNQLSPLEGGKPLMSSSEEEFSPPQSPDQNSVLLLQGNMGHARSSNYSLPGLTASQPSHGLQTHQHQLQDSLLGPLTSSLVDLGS
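Homogeneous AlphaScreen proximity assay pairing GST-Six1 with His-tagged Eya2 (added as 5X mix: 250 nM and 500 nM) in 50 mM Tris pH 8.0, 300 mM NaCl, 1 mM TCEP. Glutathione donor and nickel acceptor beads; 1 h, 37 °C, dark.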
* marks the source's active call; other numbers are inactive results; ? = inconclusive; . = no result given; [ ] = dose if it differs, or a comment.

SMILES	CtBP-E1A inh	D2 potentiator	D2 ag	gsp agonist	gsp antag	Six1-Eya2 inh
CSc1nc2ccccc2n1CC(=O)Nc1cc(C(F)(F)F)ccc1N1CCOCC1	4	4	-6.1	-20%	-12%	6
COC(=O)c1cc(=O)c2c(ccc3oc(=O)ccc32)[nH]1	-2	-2	-2.2	.	.	-7
COc1ccc(C2CC(c3ccccc3)=NN2c2ccccc2)c(C(=O)O)c1OC (stereo not drawn)	-5	-5	-6.6	-3%[15.4 µM]	1%	-14
CSc1nc(=S)c2[nH]c(=S)[nH]c2[nH]1	-13	-10	-5.7	5%[15.4 µM]	10%	?
Cc1ccccc1NS(=O)(=O)c1cc(C(N)=O)ccc1C	7	-4	2.6	16%	18%	6
CCC(C)(C)NC(=O)C(c1ccc(F)cc1)N(Cc1ccccc1)C(=O)c1cnccn1 (stereo not drawn)	1	-5	-2.7	-2%	-8%	12
CCC(=O)Nc1cccc(NC(=O)c2ccc(C)c([N+](=O)[O-])c2)c1	-1	-14	-1.8	?	0%	0
CC(C)(C)OC(=O)NCc1ccc(CNC(=O)c2nc[nH]c2C(=O)N2CCN(c3ccccc3)CC2)cc1	-13	-11	-1.8	4%	-15%	-7
CCN1CCN(S(=O)(=O)c2ccc(Cl)c(C(=O)N(C)CC(=O)Nc3c(C)cccc3C)c2)CC1	4	0	-2.2	-15%	14%	3
CC(=O)Nc1ccc(-c2ccnc3c2CC(C)(C(=O)NCCN(C)C)O3)cc1 (stereo not drawn)	-15	-4	-1.2	.	.	8
Cc1ccccc1-n1c(C)nc2ccccc21	-2	-7	-1.4	22%	-4%	-1
O=C(O)c1ccc(CSCc2ccccc2F)o1	12	-9	-2.5	-22%	5%	15
O=C(COC(=O)c1ccccc1Br)NC1CCCCCCC1	0	-16	-1.0	0%	-27%	27
Cc1cc(/C([O-])=C(/C(=S)Nc2ccccc2)[n+]2ccccc2)c(C)n1-c1ccccc1	-19	-34	-1.3	-7%	-3%	-5
C=CCN1CC2CC3(COc4cc(C)cc(C)c4)C=CC2(O3)C1=O (stereo not drawn)	3	20	1.0	-10%	-12%	0
COc1cc(F)ccc1-c1csc(C(O)c2ccc(F)c(F)c2)n1 (stereo not drawn)	7	-5	-2.8	.	.	6
CCC(C)(C)NC(=O)c1cc([N+](=O)[O-])ccc1N1CCOCC1	-2	-25	-3.1	10%	-5%	10
COc1ccc(CNS(=O)(=O)c2ccc3c(c2)CCN3C(=O)C2CCC2)cc1	-3	-6	-1.7	1%	-18%	-4
O=C(NC1=NC2CCCCC2N1)c1ccccc1 (stereo not drawn)	4	-15	-2.5	5%	1%	-2
COc1ccc2[nH]c(=O)c(CN(Cc3cccs3)Cc3nnnn3C(C)(C)C)cc2c1	-7	-10	-2.9	-28%	-18%	-8

A second format for some results above:
Values in the order: CtBP-E1A inh | D2 potentiator | D2 ag | gsp agonist | gsp antag | Six1-Eya2 inh
- CCC(C)(C)NC(=O)C(c1ccc(F)cc1)N(Cc1ccccc1)C(=O)c1cnccn1 (stereo not drawn)
    1 | -5 | -2.7 | -2% | -8% | 12
- CCC(=O)Nc1cccc(NC(=O)c2ccc(C)c([N+](=O)[O-])c2)c1
    -1 | -14 | -1.8 | ? | 0% | 0
- CC(C)(C)OC(=O)NCc1ccc(CNC(=O)c2nc[nH]c2C(=O)N2CCN(c3ccccc3)CC2)cc1
    -13 | -11 | -1.8 | 4% | -15% | -7
- CCN1CCN(S(=O)(=O)c2ccc(Cl)c(C(=O)N(C)CC(=O)Nc3c(C)cccc3C)c2)CC1
    4 | 0 | -2.2 | -15% | 14% | 3
- CC(=O)Nc1ccc(-c2ccnc3c2CC(C)(C(=O)NCCN(C)C)O3)cc1 (stereo not drawn)
    -15 | -4 | -1.2 | . | . | 8
- Cc1ccccc1-n1c(C)nc2ccccc21
    -2 | -7 | -1.4 | 22% | -4% | -1
- O=C(O)c1ccc(CSCc2ccccc2F)o1
    12 | -9 | -2.5 | -22% | 5% | 15
- O=C(COC(=O)c1ccccc1Br)NC1CCCCCCC1
    0 | -16 | -1.0 | 0% | -27% | 27
- Cc1cc(/C([O-])=C(/C(=S)Nc2ccccc2)[n+]2ccccc2)c(C)n1-c1ccccc1
    -19 | -34 | -1.3 | -7% | -3% | -5
- C=CCN1CC2CC3(COc4cc(C)cc(C)c4)C=CC2(O3)C1=O (stereo not drawn)
    3 | 20 | 1.0 | -10% | -12% | 0
- COc1cc(F)ccc1-c1csc(C(O)c2ccc(F)c(F)c2)n1 (stereo not drawn)
    7 | -5 | -2.8 | . | . | 6
- CCC(C)(C)NC(=O)c1cc([N+](=O)[O-])ccc1N1CCOCC1
    -2 | -25 | -3.1 | 10% | -5% | 10
- COc1ccc(CNS(=O)(=O)c2ccc3c(c2)CCN3C(=O)C2CCC2)cc1
    -3 | -6 | -1.7 | 1% | -18% | -4
- O=C(NC1=NC2CCCCC2N1)c1ccccc1 (stereo not drawn)
    4 | -15 | -2.5 | 5% | 1% | -2
- COc1ccc2[nH]c(=O)c(CN(Cc3cccs3)Cc3nnnn3C(C)(C)C)cc2c1
    -7 | -10 | -2.9 | -28% | -18% | -8

Further results
SMILES	CtBP-E1A inh	D2 potentiator	D2 ag	gsp agonist	gsp antag	Six1-Eya2 inh
CCCCCOC(=O)Cn1c(SCC(=O)Nc2ccccc2)nc2c1c(=O)[nH]c(=O)n2C	0	2	-2.7	33%	-5%	2
COc1ccc(-c2nnc(SCc3ncc(-c4ccccc4)o3)o2)cc1	-1	-7	-0.5	27%	-10%	3
COc1ccc(-n2nc([N+](=O)[O-])c(=NCCc3ccc(Cl)cc3)n2O)cc1	14	87*	14	7%	6%	-18
COC(=O)c1cc(C(=O)CSc2nc(C)cc(C)n2)ccc1O	-9	-18	-8.3	3%	-12%	1
CCC1Oc2ccccc2N(CC(=O)NCCCN2CCN(Cc3ccccc3)CC2)C1=O (stereo not drawn)	4	-25	-0.3	?	2%	4
C/C(N)=C(/C#N)C(=O)COC(=O)C1=NN(c2ccccc2)C(=O)CC1	2	5	-0.6	12%	14%	9
OC(c1ccccc1)c1ncc(-c2ccc(C(F)(F)F)cc2)[nH]1 (stereo not drawn)	-11	-5	-4.5	.	.	-4
CCCCNC(=O)CSc1nnc(NC(C)=O)s1	5	-6	-2.3	14%	3%	-4
NS(=O)(=O)c1ccc(N/N=C/c2ccc(O)cc2O)c([N+](=O)[O-])c1	?	-10	-0.3	-29%	-21%	-25
CC(C)c1ccc(NS(=O)(=O)c2ccc3c(c2)oc(=O)n3C)cc1	5	-6	2.3	-3%	-10%	6
COc1cc(/C=N/Nc2cccc3cccnc23)cc(OC)c1O	.	1	1.2	-87%[inhibitor]	-12%	-10
C=CC[C@@H](CC(=O)N[C@@H](CO)Cc1ccccc1)C(=O)N[C@H](COC(=O)[C@H](CC=C)CC(=O)OC(C)(C)C)Cc1ccccc1	3	-4	-0.1	.	3%	6
CCCC(=O)Nc1nc(C)c(-c2csc(Nc3ccccc3C)n2)s1	-7	-6	-3.5	?	-10%	-4
CCOC(=O)C1=C(C2=CCCCC2)c2ccc(OC)cc2N(S(=O)(=O)C(F)(F)F)C1C(=O)OCC (stereo not drawn)	0	-1	0.1	.	-10%	1
CC(C)(C)c1[nH]nc2c1C(c1ccsc1)C(C#N)=C(N)O2 (stereo not drawn)	.	-3	-4.3	-79%	-6%	3
O=C(c1cccc(S(=O)(=O)N2CCOCC2)c1)N(Cc1ccco1)Cc1cccs1	2	-2	5.4	17%	-12%	-4
O=C(COC(=O)c1cncc(Br)c1)NCc1cccs1	.	11	-3.0	28%	2%	-1
CCCCn1c(SCC(=O)NCc2ccco2)nc2ccc(N3CCOCC3)cc2c1=O	-4	6	3.1	?	-12%	-7
O=C(NCCN1CCOCC1)c1ccc(Cl)c(S(=O)(=O)N2CCCCC2)c1	-14	-23	-4.2	-33%[inhibitor]	5%	-8
Cc1ccc2[nH]c(=O)c(NC(N)=S)nc2c1	?	-13	-2.4	-24%	17%	?
COc1cccc(/C=C/C(=O)NNC(=O)c2ccncc2)c1	5	0	-1.8	11%[15.4 µM]	-8%	7
Cc1cc(C)cc(OCc2nnc(N)s2)c1	0	0	-2.9	-1%	4%	1
CCOC(CCNC(=O)c1cc2c(=O)[nH]c3ccccc3c2s1)OCC	.	-1	2.1	21%	3%	1
CCCc1nc(SCC(=O)Nc2ccccc2)c2c(=O)n(C)c(=O)n(C)c2n1	-3	-3	-3.8	-34%[inhibitor]	-1%	6
COc1ccc(S(=O)(=O)N(C)C)cc1NC(=O)CCNC(=O)c1ccccc1OC	.	1	-3.5	9%	-3%	0
CCCS(=O)(=O)c1c(S(=O)(=O)CCC)c2cc(CC)ccn2c1C(=O)OC	0	-5	-2.6	-13%	-3%	2
FC(F)(F)C(F)(F)C(F)(F)c1nc2nc(Cl)c(Cl)nc2[nH]1	-12	5	-3.3	?	.	-21
Cc1cc(NC(=O)CSc2nc3ccc(Cl)cc3[nH]2)no1	4	-5	-0.1	?	4%	3
COc1ccc(N=C2SC(CC(=O)Nc3ccccc3OC)C(=O)N2Cc2ccco2)cc1 (stereo not drawn)	-10	-7	-1.6	?	-2%	-10
COc1cc(/C=N/NC(N)=O)cc(Br)c1OCc1ccccc1C	2	27	0.4	-27%	-10%	0
O=C(OCC(=O)N1CCN(c2ccccc2)CC1)c1cc(Br)ccc1Cl	-1	-1	4.2	20%	?	-2
COc1ccc(C(=O)C2CCCN(C(=O)c3cnsn3)C2)c(C)c1 (stereo not drawn)	.	-12	-0.5	-30%	0%	6
CC(C)(CO)NCC(O)COc1ccc2c(c1)CCC2 (stereo not drawn)	4	-5	0.0	-21%	13%	4
C[C@@]12CCC3[C@@](CCC4[C@@]3(C)CCC[C@@]4(C)C(=O)Nc3ccc(Cl)cc3)(CC1=O)C2 (stereo partly drawn)	1	0	-0.4	.	-5%	-5
CCOC(=O)c1[nH]ncc1CN1CCCC(C(=O)c2cc(Cl)ccc2OC)C1 (stereo not drawn)	.	-6	-0.2	16%	10%	-5
CC(=O)Nc1ccc(NC(=O)C(C)OC(=O)CN(C)S(=O)(=O)c2ccc(Cl)cc2)cc1 (stereo not drawn)	4	-5	1.6	-9%	4%	1
Cc1ccc(S(=O)(=O)NN2CCCCCC2)cc1	-2	-10	-2.2	-21%	.	5
O=c1c2ccccc2cnn1Cc1n[nH]c(=S)n1C1CC2CCC1C2 (stereo not drawn)	-12	-12	1.1	2%[15.4 µM]	-3%	-6
CCCCc1nc(C(N)=O)c2[nH]c(=O)n(-c3ccccc3F)c2n1	.	0	0.4	-19%	3%	2
